S aureus helic – blocks Staphylococcus aureus DNA helicase; purified S. aureus helicase, fluorescence unwinding assay; about half of the hits fall short of the stated cut; inhibition, %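 (tested at about 80 µM)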; 0.05% of 120,000 active; AID 485395;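 active = both duplicates at 50% or more, or one of them with a favoured structure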;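 also: 0% = mean of negative control wells and 100% = mean of positive control wells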
MgrA DNA FP – S. aureus MgrA-DNA binding modulation; 0.13% of 84,000 active; fluorescence polarization; AID 602314; inhibition, %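 (about 10 µg/mL by stock and volumes)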;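 active = above 50% in either of two replicates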;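 also: 0% = protein plus DNA without compound and 100% = DNA alone without protein; higher means less MgrA bound to DNA so lower polarization; one replicate is shown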
* = called active by the depositor.

Screening O=C(COC(=O)Cn1cnc2ccccc21)NC1CCCCCC1 returned S aureus helic -7.
For COc1cccc(NC(=S)NNC(=O)c2ccccc2Cl)c1 the results were MgrA DNA FP 4.4.
`CCOC(=O)c1cnc(S/C=C/C(=O)c2ccc(Cl)cc2)nc1N` gave MgrA DNA FP 0.5.
`COc1cc2c(cc1NC(C)C(=O)N1CCCC1)oc1ccccc12` (stereo not drawn) gave S aureus helic -6.
`O=c1c(-c2ccccc2Cl)c(C(F)(F)F)oc2c(CN3CCOCC3)c(O)ccc12` gave MgrA DNA FP -2.2.
COc1ccc(C(=O)N2CCCN(C)CC2)cc1S(=O)(=O)N(C)Cc1ccccc1 was read as S aureus helic -20.
For N=c1oc2ccc(Br)cc2cc1-c1nc2ccccc2[nH]1 the results were S aureus helic -13 and MgrA DNA FP 0.1.
Cc1cc(NC(=O)c2cc(C(C)(C)C)oc2C)nc(C)n1 was read as MgrA DNA FP -0.8.
O=C1OC(c2ccccc2)=C/C1=C/c1ccco1 was read as S aureus helic -4 and MgrA DNA FP 19.
For CC(C)OC(=O)c1cccnc1SCc1cc(=O)n2ccccc2n1 the results were S aureus helic 11 and MgrA DNA FP -0.6.
For COc1ccccc1NC(=O)Cc1noc(COC(=O)c2cc(OC)c(OC)cc2OC)n1 the results were S aureus helic -4.
Screening COc1cc(Br)cc(C=Nc2cccc(-c3nc4ccccc4o3)c2)c1O returned S aureus helic 7 and MgrA DNA FP 1.2.
`CCN1C(=O)C(CC(=O)Nc2ccc(Br)cc2)N(CCNC(C)=O)C1=S` (stereo not drawn) gave S aureus helic 0 and MgrA DNA FP 0.5.
Screening COc1cc(/C=C2\C(=N)N3N=C(S(C)(=O)=O)SC3=NC2=O)ccc1OC(=O)c1ccco1 returned S aureus helic -24.
COCc1cc(=O)[nH]c(N)n1 was read as MgrA DNA FP -1.1.

Quoted at random: 2 compounds from above, in no set order.
`CCN1C(=O)C(CC(=O)Nc2ccc(Br)cc2)N(CCNC(C)=O)C1=S` (stereo not drawn) gave S aureus helic 0 and MgrA DNA FP 0.5.
Screening COc1cc(/C=C2\C(=N)N3N=C(S(C)(=O)=O)SC3=NC2=O)ccc1OC(=O)c1ccco1 returned S aureus helic -24.

The main list resumes; the 3 compounds before the break are reprinted first.
`CCN1C(=O)C(CC(=O)Nc2ccc(Br)cc2)N(CCNC(C)=O)C1=S` (stereo not drawn) gave S aureus helic 0 and MgrA DNA FP 0.5.
Screening COc1cc(/C=C2\C(=N)N3N=C(S(C)(=O)=O)SC3=NC2=O)ccc1OC(=O)c1ccco1 returned S aureus helic -24.
COCc1cc(=O)[nH]c(N)n1 was read as MgrA DNA FP -1.1.
CC(=O)NCc1nc2ccccc2n1Cc1ccccc1 was read as S aureus helic 11 and MgrA DNA FP -0.2.
OCC12C3CC4C5C3C1C5C(F)(F)C42 (stereo not drawn) was read as S aureus helic 2.
`CCCn1c(SCC(=O)N2CCc3ccccc32)nc(O)cc1=O` gave S aureus helic 12.
CCn1c(=O)c(=O)[nH]c2cc(C(=O)Nc3ccc4c(c3)CCC4)ccc21 was read as S aureus helic 13.
For Cc1ccc(-c2noc(CN(C)C(=O)Nc3ccc(Cl)cc3)n2)cc1 the results were S aureus helic -5 and MgrA DNA FP 0.0.
Screening O=C(O)C1(c2ccccc2)CCC(Nc2ccccc2)C1 (stereo not drawn) returned S aureus helic 7 and MgrA DNA FP -3.7.
COc1ccccc1COc1ccc2c3c(c(=O)oc2c1C)CCCCC3 was read as S aureus helic -18 and MgrA DNA FP -0.6.
CCOC(=O)c1c(C)[nH]c(C)c1C(=O)CSC(=S)N(C)C was read as S aureus helic -10.
`Cc1cc2c(c(=O)o1)C(c1cccc(COc3ccccc3Cl)c1)C(C#N)=C(N)C2` (stereo not drawn) gave S aureus helic 0 and MgrA DNA FP -1.1.
Screening Cc1nc(N)sc1-c1nnc(SC/C=C/c2ccccc2)n1C returned S aureus helic 8 and MgrA DNA FP -0.1.
CCN(CC)c1ncnc2c1cnn2Cc1ccc(Cl)cc1 was read as S aureus helic -20.
`COc1ccc(/C=N/N=C/c2ccc(OC)c(O)c2)cc1O` gave S aureus helic 0 and MgrA DNA FP 5.2.
Screening CC1=C(C(=O)Nc2ccccc2)S(=O)CCO1 (stereo not drawn) returned S aureus helic -16.
Cc1cc(Nc2ccccc2)n(-c2ccccc2)n1 was read as S aureus helic 14.
For Cc1ccc(OCCn2cc(C=C(C#N)C#N)c3ccccc32)cc1 the results were S aureus helic 8 and MgrA DNA FP -7.6.
Screening CCOC(=O)Cc1nc2ccccc2o1 returned S aureus helic -13 and MgrA DNA FP 0.5.
For C1CCCC(NCCCN2CCOCC2)CC1 the results were S aureus helic 12 and MgrA DNA FP -2.8.
COc1cccc(OC)c1C(=O)Nc1cc(Cl)ccc1N1CCOCC1 was read as S aureus helic 3 and MgrA DNA FP -2.5.
For Cc1ccc(C)c(Cn2c(C(=O)OC(C)C)cc3c2ccn3C)c1 the results were S aureus helic 12 and MgrA DNA FP -2.7.
For Cn1nc(-c2ccc(C(C)(C)C)cc2)cc1N the results were MgrA DNA FP -1.2.
For Cc1cc(C)cc(C(=O)NCC(c2ccc(N(C)C)cc2)N2CCOCC2)c1 (stereo not drawn) the results were S aureus helic -5.
`O=C1S/C(=C\c2ccc(N3CCOCC3)o2)C(=O)N1Cc1ccc(F)cc1` gave S aureus helic -84.
`Cc1cc(C)n2nc(CC(=O)NC3CCCCCCC3)nc2n1` gave S aureus helic -3 and MgrA DNA FP 1.1.
`O=C(c1ccccc1)C1CN(C2CCS(=O)(=O)C2)CCC1(O)c1ccccc1` (stereo not drawn) gave S aureus helic 6 and MgrA DNA FP -0.6.
Screening N#CC(C#N)C(c1ccsc1)c1c(-c2ccccc2)[nH][nH]c1=O (stereo not drawn) returned S aureus helic 5 and MgrA DNA FP 3.4.
For CCOC(=O)c1sc(NC(=O)c2cccs2)nc1-c1ccccc1 the results were S aureus helic 23.
`C=CCN(CC=C)S(=O)(=O)c1ccc(C)cc1` gave S aureus helic 19 and MgrA DNA FP -2.1.
O=C(CO/N=C/c1ccccc1OC(F)F)N1CCc2ccccc21 was read as S aureus helic 8.
`Cc1noc(C)c1COc1ccc(CC(=O)NCc2ccccc2)cc1` gave S aureus helic 7.
For COc1cccc(Nc2n[nH]c(=S)s2)c1 the results were MgrA DNA FP 6.6.
`O=C1c2ccccc2C(=O)c2c1oc1c3c(ccc21)OCN(Cc1ccccc1)C3` gave S aureus helic 4.
Screening C/C(=C\C=C\c1ccccc1)C(=O)c1c(C)cc(C)[nH]c1=O returned S aureus helic 7 and MgrA DNA FP 1.6.
CSc1ccc(-c2nc3ccccc3c(=O)[nH]2)cc1 was read as S aureus helic 7 and MgrA DNA FP 0.9.
`O=C(CN1CCN(Cc2ccccc2)CC1)NC1CC1` gave S aureus helic -2 and MgrA DNA FP 0.5.
Cc1cc(C)nc(NS(=O)(=O)c2ccc(NC(=O)Cc3ccccc3)cc2)n1 was read as MgrA DNA FP -1.0.
CSc1cc(-c2csc3ccccc23)[nH]n1 was read as MgrA DNA FP -1.1.
For CC(=O)OCC(=O)Nc1ccc(I)cc1C the results were S aureus helic 10 and MgrA DNA FP 1.0.
`CC(=O)Nc1ccccc1OCCN(Cc1ccccc1)C(=O)c1ccc(Cl)cc1` gave MgrA DNA FP 2.2.
Screening COc1cccc2c(C)nc(NC3=NCN(CC4CCCO4)CN3)nc12 (stereo not drawn) returned S aureus helic 3 and MgrA DNA FP -2.1.
Screening Nc1scc[n+]1CC(=O)[O-] returned S aureus helic 1 and MgrA DNA FP 2.6.
`CCNc1nc(N)nc(Oc2ccc(OCC)nn2)n1` gave S aureus helic -2 and MgrA DNA FP 3.0.
For Cc1occc1-c1nnc(SCC(=O)NC(=O)NCc2ccccc2)n1Cc1ccccc1 the results were S aureus helic -1.
Oc1ccc(O)c([S+]2CCCCC2)c1 was read as S aureus helic 14 and MgrA DNA FP 35.
`Cc1ccc(Nc2cc(C(=O)NCCC3=CCCCC3)c3ccccc3n2)c(C)c1` gave S aureus helic 6 and MgrA DNA FP 0.6.
Screening C=CCC1S/C(=N/N=C/c2ccccc2)NC1=O (stereo not drawn) returned S aureus helic 12.
Screening NCCN1C(=O)S/C(=C/c2ccccc2)C1=O returned S aureus helic 5 and MgrA DNA FP 0.6.
COc1cccc(-n2cc[nH]c(=O)c2=O)c1 was read as S aureus helic -23.
CCc1cc(C(=O)Cc2cnn(-c3ccccc3)c2)c(O)cc1OC was read as S aureus helic 7.
For CC(C)NC(=O)COc1coc(CN2CCN(C(=O)c3ccco3)CC2)cc1=O the results were S aureus helic 5.
Screening CCOC(=O)c1c(C)n(C)c2ccc(OCCN(C)C)cc12 returned S aureus helic 15 and MgrA DNA FP -2.6.
`CCOC(=O)c1cnc2c(ccc3[nH]snc32)c1=O` gave S aureus helic -5.
For OC1C2CN3CCN(C2)CC1(Cc1ccccc1)C3 (stereo not drawn) the results were S aureus helic 3 and MgrA DNA FP -1.7.
`Cc1ccc(-n2nc(C)c3c(C)c(CCC(=O)NCc4cccs4)c(C)nc32)cc1` gave S aureus helic 7 and MgrA DNA FP -0.2.
`COc1ccc(NC(=O)NC2CCCc3ccccc32)cc1OC` (stereo not drawn) gave S aureus helic 6 and MgrA DNA FP 0.7.
`O=C(OC1CSc2nc3ccccc3n2C1)c1ccco1` (stereo not drawn) gave S aureus helic 9 and MgrA DNA FP 0.0.
Cc1nc(Cc2nnc(SCc3cc(=O)oc4cc5c(cc34)CCC5)o2)cs1 was read as S aureus helic 9.
Screening Cn1c(=O)c(-c2noc(-c3ccc(Cl)cc3)n2)cn(-c2ccccc2)c1=O returned S aureus helic -25.
`Cc1ccc(-c2n[nH]c(=O)c3ccccc23)cc1S(=O)(=O)NCCN1CCOCC1` gave S aureus helic 6.
For O=C(N/N=C/c1ccc(-c2ccc(Cl)c(C(=O)O)c2)o1)c1ccncc1 the results were S aureus helic -7 and MgrA DNA FP 6.6.
For O/N=C1/C(c2ccccc2)=Nc2ncnn2C1c1ccccc1 (stereo not drawn) the results were S aureus helic 17.

Gathered by group, the compounds so far with fluorine.
`O=c1c(-c2ccccc2Cl)c(C(F)(F)F)oc2c(CN3CCOCC3)c(O)ccc12` gave MgrA DNA FP -2.2.
OCC12C3CC4C5C3C1C5C(F)(F)C42 (stereo not drawn) was read as S aureus helic 2.
`O=C1S/C(=C\c2ccc(N3CCOCC3)o2)C(=O)N1Cc1ccc(F)cc1` gave S aureus helic -84.
O=C(CO/N=C/c1ccccc1OC(F)F)N1CCc2ccccc21 was read as S aureus helic 8.

Later entries
Screening c1ccc(-n2ncc3c(NCC4CCCO4)ncnc32)cc1 (stereo not drawn) returned S aureus helic 17.
Screening Cc1cc(C)n2nc(SC(C)C(=O)NC3CCCCCCC3)nc2n1 (stereo not drawn) returned S aureus helic 5 and MgrA DNA FP 0.4.
COc1ccc(NC(=O)CCOc2ccccc2)cc1 was read as S aureus helic -22.
For COc1cccc2cc(C(=O)N3CCN(c4cc(Cl)ccc4C)CC3)c(=O)oc12 the results were S aureus helic 6.
`CCNCc1ccc(-c2cccc(Cl)c2)o1` gave S aureus helic 1 and MgrA DNA FP -0.1.
Screening COc1cc(C)nc(Oc2ccc(OCCOc3ccccc3)nn2)n1 returned S aureus helic -3 and MgrA DNA FP 0.3.
For CCOc1ccc(N=C2SC(C(=O)Nc3cccc(OCC)c3)CC(=O)N2C)cc1 (stereo not drawn) the results were MgrA DNA FP 1.1.
For CC(=O)Nc1ccc(NC(=O)c2cc(=O)[nH]c3ccccc23)cc1 the results were S aureus helic -3 and MgrA DNA FP 2.2.
`N#CCSC1=Nc2ccccc2C2=NC(CCC(=O)NC3CCCCC3)C(=O)N12` (stereo not drawn) gave S aureus helic 9 and MgrA DNA FP 0.2.
For CCOc1ccc(Cl)cc1N the results were S aureus helic 19 and MgrA DNA FP 2.6.
For CC(C)c1ccc(/C=N/O)cc1 the results were S aureus helic -11.
Screening CCc1ccc(C(=S)N2CCOCC2)cc1 returned S aureus helic 16 and MgrA DNA FP 5.5.
`CCCn1c(=O)c2c(C(=O)OCC)cc(-c3ccccn3)nc2n(CCC)c1=O` gave S aureus helic 7.
COCC(C)N1C(=Nc2cccnc2)SCC1(O)c1cc2ccccc2o1 (stereo not drawn) was read as S aureus helic -2.
For Cc1cccc2c(N=O)c(O)n(CCc3ccccc3)c12 the results were S aureus helic 1.
Screening COc1ccc2oc(=O)c(C(=O)n3ccnc3C)cc2c1 returned S aureus helic -8.
For Cc1cc(C)n(CCc2nc3c4ccccc4n(Cc4ccc(Cl)cc4)c(=O)n3n2)n1 the results were S aureus helic 16 and MgrA DNA FP 0.6.
For COc1cccc(CN2C(=O)NC3(CCSC3)C2=O)c1 (stereo not drawn) the results were S aureus helic 8.
Screening Cc1cc(OCC(O)CN(C(C)C)C(C)C)c(C(C)C)cc1Cl (stereo not drawn) returned S aureus helic -14.
`O=C1CC(c2ccc(F)cc2)CC2=C1C(c1ccccc1)N=C(Nc1nc3ccccc3o1)N2` (stereo not drawn) gave S aureus helic 11 and MgrA DNA FP -2.0.
For O=C(NCCN1CCCC1)c1ccco1 the results were S aureus helic -5 and MgrA DNA FP 2.3.
For ClCC1=Nc2cccc3cccc(c23)N1 the results were S aureus helic -11 and MgrA DNA FP -2.5.
`COc1cccc(C2NC(=O)NC(C)=C2C(=O)Nc2ccccc2C)c1OC` (stereo not drawn) gave S aureus helic -3 and MgrA DNA FP 2.5.

Screening data from PubChem BioAssay.

An excerpt. The share of hits here may be higher or lower than overall.
